CBX7 inh = blocks human CBX7 binding to H3K27me3 peptide. O95931. AlphaScreen His6-CBX7 / biotin-H3K27me3 peptide binding; stronger effect = lower value. normalised signal (fraction of DMSO) (no concentration beside the values). 1.1% of 66,000 active; in the data active = normalised signal below about 0.5;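 note: 100 nL library stock added to about 20 µL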
Target sequence (O95931 whole entry, looked up): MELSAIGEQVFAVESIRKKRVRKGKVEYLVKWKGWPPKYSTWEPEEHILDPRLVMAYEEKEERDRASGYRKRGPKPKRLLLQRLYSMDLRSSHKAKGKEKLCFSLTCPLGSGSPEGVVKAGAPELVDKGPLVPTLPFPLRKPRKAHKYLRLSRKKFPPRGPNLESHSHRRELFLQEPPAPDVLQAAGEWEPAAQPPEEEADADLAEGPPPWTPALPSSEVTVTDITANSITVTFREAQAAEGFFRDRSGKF
CBX7 inh z-score = second read-out of CBX7 inh, no call of its own (marks repeat the call); z-score; measured here: z-score of CBX7 signal; some inactives read as strong as hits; reference of the scale not given here;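 same signal on another scale; lower means less binding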
Starred values were filed as active, the others as inactive; & = joins results of further samples.

The first five compounds as a preview:
Screens in order – CBX7 inh	CBX7 inh z-score
O=C1CC(c2nc3ccccc3n2CCCc2ccccc2)CN1Cc1ccccc1 (stereo not drawn)
    0.62	-2.4
COc1ccc(NC(=O)CCCNC(=O)Cn2cnc3sc(C)c(C)c3c2=O)cc1Cl
    1.2	2.3
Cc1ccccc1CN1C(=O)CSc2ccc(C(=O)NCc3cccnc3)cc21
    1.1	1.1
CCOc1ccc(-c2nc(SCC(=O)NCCOC)c(-c3ccc(OC)c(OC)c3)[nH]2)cc1
    0.89	-1.9
CCc1ccccc1NC1c2ccccc2C(=O)N1Cc1ccccc1Cl (stereo not drawn)
    0.95	-0.14

This part in full, from the first entry:
Screens in order – CBX7 inh	CBX7 inh z-score
O=C1CC(c2nc3ccccc3n2CCCc2ccccc2)CN1Cc1ccccc1 (stereo not drawn)
    0.62	-2.4
COc1ccc(NC(=O)CCCNC(=O)Cn2cnc3sc(C)c(C)c3c2=O)cc1Cl
    1.2	2.3
Cc1ccccc1CN1C(=O)CSc2ccc(C(=O)NCc3cccnc3)cc21
    1.1	1.1
CCOc1ccc(-c2nc(SCC(=O)NCCOC)c(-c3ccc(OC)c(OC)c3)[nH]2)cc1
    0.89	-1.9
CCc1ccccc1NC1c2ccccc2C(=O)N1Cc1ccccc1Cl (stereo not drawn)
    0.95	-0.14
COc1ccc(CCNc2oc(COc3ccc(OC)cc3)nc2C#N)cc1
    0.9	-5.2
CCN1C(=O)c2ccccc2S(=O)c2ccc(C(=O)N3CCN(Cc4ccccc4)CC3)cc21 (stereo not drawn)
    0.93	-1.7
COc1cccc(-n2c(Cc3cc(=O)[nH]c(=O)[nH]3)nnc2SCc2ccccc2F)c1
    1.1	0.87
Cc1c(C(=O)NCCN2CCOCC2)oc2ccc(S(=O)(=O)N3CCCC3)cc12
    1	1.2
CCN1CCN(CCCNS(=O)(=O)c2cc(Br)cc3c2N(C(C)=O)CC3)CC1
    0.99	-0.24
COc1ccc(-n2ccnc2SCC(=O)Nc2nc3ccccc3s2)cc1
    1.1	0.15
CCOC(=O)C1CCN(c2cc(=O)n(Cc3ccc(F)cc3)c(=O)[nH]2)CC1
    0.97	-0.67
COC(=O)c1ccc(NC(=O)CSc2nnc(C)c3ccccc23)cc1
    0.98&1	-0.7&0.2
Cc1cc2nc(C)n(CCCNC(=O)NC3CCCCC3)c2cc1C
    1	0.092
COc1ccc(CCNC(=O)c2nonc2N)cc1OC
    0.98	-0.18
O=C1CCc2cc(S(=O)(=O)N3CCC(C(=O)NC4CCCCC4)CC3)ccc2N1
    0.94	-1.1
Cc1ccc(CCN2CC(C(=O)NC3CCC(C)CC3)CC2=O)cc1 (stereo not drawn)
    1	0.87
CCOc1ccc(NC(=O)CC2C(=O)N(c3ccc(F)cc3)C(=O)N2C(C)C)cc1 (stereo not drawn)
    1.1	2.3
COc1cc(CNCCO)ccc1OCc1ccc(F)cc1
    1	0.53
Cc1cc(NCC(C)c2ccccc2)n2ncnc2n1 (stereo not drawn)
    1	0.55

Record cards, from the list above. Order of values: CBX7 inh | CBX7 inh z-score
`Cc1ccc(CCN2CC(C(=O)NC3CCC(C)CC3)CC2=O)cc1` (stereo not drawn) is entered as 1 | 0.87
`COc1cc(CNCCO)ccc1OCc1ccc(F)cc1` is entered as 1 | 0.53
`COc1ccc(-n2ccnc2SCC(=O)Nc2nc3ccccc3s2)cc1` is entered as 1.1 | 0.15

(continued)
Screens in order – CBX7 inh	CBX7 inh z-score
CCc1cccc(C)c1NC(=O)c1cccc2c1C(=O)N(CCOC)C2
    1.1	1.8
CCOc1ccc(CCNC(=O)Nc2ccccc2C)cc1OCC
    1	0.55
CCN(CC)S(=O)(=O)c1ccc2c(c1)N(CC(=O)NC1CCCC1)C(=O)CS2
    1	0.85
O=C(Nc1ccccc1-c1nc2ccccc2[nH]1)c1ccc(Cl)cc1Cl
    1	0.75
CCc1nc2c(c(N)c1C)CCC2
    1	0.3
O=C(CCc1ccccc1)c1ccccc1OCC(O)CN1CCCCC1 (stereo not drawn)
    1	0.042
COc1ccc(N(C)C(=O)c2cn(CC(C)C)c(=O)c3cc(OC)c(OC)cc23)cc1
    1.1	3.3
Clc1ccc(-c2cc(-c3nc(C4CCCCC4)no3)c3ccccc3n2)cc1
    1.3	7.6
Cc1ccc(C)c(-n2c(Cc3cc(=O)[nH]c(=O)[nH]3)nnc2SCc2ccc(Br)cc2)c1
    1.1	0.19
CCCC(=O)N1CC(=O)Nc2ccc(F)cc2C1c1ccccc1 (stereo not drawn)
    1	0.11
CCCCN(C)C(=O)Cn1ncc2c1-c1ccccc1OC2
    0.88	-1.5
CC(C)CC(=O)NC(C)C(c1cccs1)N1CCN(c2ccccc2)CC1 (stereo not drawn)
    1	-0.025
O=S(=O)(c1cnc[nH]1)N1CCN(c2ccccn2)CC1
    0.93	-1.1
CCOc1ccc(-n2c(Cc3cc(=O)[nH]c(=O)[nH]3)nnc2SCC(=O)N2CCCCC2)cc1
    0.84	-2.4
Clc1ccc(OCc2nc(-c3ccncc3)no2)c(Br)c1
    1.2	2
Cc1ccc(CNC(=O)Cn2nc(Cc3ccncc3)c3ccccc3c2=O)cc1
    1.3	3
O=C(O)c1ccc2nc(N3CCCCC3)sc2c1
    0.97	-0.8
COc1ccccc1CC(=O)Nc1ccc(-c2noc(COc3ccc(Cl)c(C)c3)n2)cc1
    1	0.67
CCOC(=O)c1cnc2cc(-c3ccc(Br)cc3)nn2c1-c1ccccc1
    1.2	4.3
COc1ccccc1NS(=O)(=O)c1ccc2c(c1)n(C)c(=O)c(=O)n2C
    1.2	1.3
Cc1cccc(NC(=O)CSc2nnc(-c3c[nH]c4ccccc34)n2C)c1
    0.84	-1.6
Cc1ccc(-c2nc(S(=O)(=O)c3ccc(Cl)cc3)c(SC(C)C)o2)cc1
    1.2	6.2
CCOC(=O)c1oc2ccccc2c1NC(=O)C(C)Oc1ccccc1 (stereo not drawn)
    1.2	5.7
COc1cccc(C2CC(=O)Nc3cc4c(cc32)OCCO4)c1OC (stereo not drawn)
    1	0.25
CCOC(=O)c1cc(-c2ccccc2)n(CCC(=O)Nc2ccccc2N2CCN(C)CC2)c1C
    0.91	-2.4
CCOc1ccc(NC(=O)CCc2nc3ccccc3[nH]2)cc1
    1	1.4
Cn1c(=O)[nH]c(=O)c2c1nc(CN1CCOCC1)n2CCCO
    1.1	2.9
COC(=O)c1ccccc1NC(=O)COc1cc(C)ccc1C(C)(C)C
    1.5	1.1
CCC(=O)N1CCCc2cc(S(=O)(=O)N3CCN(c4cc(C)ccc4C)CC3)ccc21
    0.85	-1.3
CC(O)c1cnnn1-c1nonc1N (stereo not drawn)
    1.1	1.7
CCOc1cc2[nH]c(=O)n(CCCN3CCN(c4ccc(OC)cc4)CC3)c(=O)c2cc1OCC
    0.76	-4.7
O=S(=O)(c1ccccc1)c1nc(-c2ccccc2F)oc1N1CCCCC1
    0.49*	-4.9*
Cc1cc(Br)ccc1NC(=O)CCCN1C(=O)c2cccnc2C1=O
    0.88	-0.25
Cc1cccc(N2CCN(CCNC(=O)c3cc4sccc4n3C)CC2)c1C
    0.84	-2.6
CCc1ccc(NC(=O)Cn2cc(S(=O)(=O)c3ccccc3)c(=O)c3cc(Cl)ccc32)cc1
    1	0.09
CCN(CC)CCNC(=O)Cn1c(-c2ccccn2)nc2ccccc21
    0.96	-1.1
Cc1cc(C(=O)CN2CC(C)OC(C)C2)c(C)n1-c1ccccc1 (stereo not drawn)
    0.89	-1.5
CC(=O)N1CCc2cc(S(=O)(=O)Nc3cccc(C)c3C)ccc21
    1	-0.077
O=C(Cn1c(=O)[nH]c2ccsc2c1=O)NCCc1ccc(Cl)cc1
    0.99	-0.15
COc1ccc(-c2cc(C(F)(F)F)nc(N3CCN(C)CC3)n2)cc1
    0.9	-0.79
COc1ccc(OC)c(Nc2nc(-c3ccc(C)cc3)cs2)c1
    0.77	-3.2
c1ccc(OCc2nc(-c3ccccc3)no2)cc1
    1.2	2.6
Cc1ccc(-c2nc(CSCC(=O)NCCC(C)C)c(C)o2)cc1
    0.95	-0.89
Cc1cccc(Nc2nc(-c3cccc(C)c3)nc3ccccc23)c1
    1.1	2.8
O=C(NCc1cccnc1)[C@H](Cc1ccccc1)N1Cc2ccccc2C1=O
    0.97	-0.75
Cc1cc(N2CCCCC2)nc2ccc(NC(=O)CCC(=O)NCCCN3CCOCC3)cc12
    1	2.1
Cc1nc2ccc(S(=O)(=O)N(C)CC(=O)Nc3nc4ccc(Cl)cc4s3)cc2s1
    1.3	1.8
CCOC(=O)c1c(NC(=O)CN2CCC(C)CC2)sc2c1CCC(C)C2 (stereo not drawn)
    1	-0.051
CC(C)CCNC(=O)c1ccc2c(c1)N(Cc1ccccc1)C(=O)c1ccccc1S2=O (stereo not drawn)
    1	0.91
Cc1ccc(-c2nnc(NC(=O)c3cccs3)s2)cc1
    1	0.82

(list continues)
Screens in order – CBX7 inh	CBX7 inh z-score
COc1cc(-c2nc3sc4c(c3c(=O)[nH]2)CCCC4)ccc1OCc1ccccc1
    1.1	2.2
COc1cc(S(=O)(=O)NCCc2c(C)[nH]c3ccc(Br)cc23)c(C)cc1C
    0.59	-0.41
COc1ccc(-c2cc(C(=O)Nc3c(C)nn(Cc4ccccc4C)c3C)no2)cc1OC
    1.1	1.6
COc1ccc(-c2nc(CN3CCCC(C(=O)NC4CCCCCC4)C3)c(C)o2)cc1 (stereo not drawn)
    1.1	1.4
CN1C(=O)C(C)(C)N(Cc2ccccc2)c2ccccc21
    0.98	-0.48
CCCN1CCN(C(=O)c2cccc3c2C(=O)N(Cc2cccnc2)C3)CC1
    1.1	2.2
COc1ccc(-c2nc(CN3C(=O)CSc4nc(C)cc(C)c43)c(C)o2)cc1OC
    0.9	-0.4
O=C(NC1CCCCC1)c1cc2nc(-c3ccccc3)cc(C(F)(F)F)n2n1
    1.2	6.9
COc1ccc(Nc2nc(C)cc(C)c2C#N)cc1OC
    1.2	2.1
CC(CNC(=O)c1nnc(Cc2ccc(Cl)cc2)o1)c1ccccc1 (stereo not drawn)
    1.1	2.7
O=C(Nc1ccc2oc(-c3cccc(Cl)c3)nc2c1)c1ccc(F)cc1
    1	2.2
O=C(Nc1ccc(Oc2ccc3ccccc3c2Cl)c(Cl)c1)c1cccs1
    1.1	1
O=C1CN(C(=O)c2cccc(F)c2)C(c2ccc(F)cc2)c2cc(F)ccc2N1 (stereo not drawn)
    1	-0.01
Cc1ccc(Cn2c(=O)n(CCC(=O)NCc3ccc4c(c3)OCO4)c(=O)c3sccc32)cc1
    0.88	-2
COc1cc(-n2c(C)nc3cc(C(=O)NCc4ccccc4Cl)ccc32)cc(OC)c1OC
    1	0.21
O=C(NCCc1ccccc1)c1cc2c(s1)CS(=O)(=O)C2
    1	0.18
CCCNS(=O)(=O)c1ccc2c(c1)CC(C)N2C(=O)CC (stereo not drawn)
    0.86	-0.57
COc1ccc(CCNC(=O)Cn2ncc3c2-c2cc(C)ccc2OC3)cc1OC
    1	1.1
Cc1ccccc1C(=O)Nc1ccc2nc3n(c(=O)c2c1)CCCCC3
    0.95	-1.1
COc1ccc(C2(CNC(=O)c3cc4ccccc4o3)CCCC2)cc1OC
    0.91	-2.1
COc1cc2[nH]c(=O)n(Cc3ccc(C(=O)NCc4cccnc4)cc3)c(=O)c2cc1OC
    0.99	-0.24
CCc1cc2c(=O)c(-c3ccc4c(c3)OCCO4)c(C)oc2cc1OC(C)=O
    1	0.44
Cc1ccc(-c2nnc(Nc3ccc(Cl)cc3)c3ccccc23)cc1S(=O)(=O)N1CCCCC1
    0.9	-1.8
CCOC(=O)c1c(-c2ccc(Br)cc2)csc1NC(=O)c1ccc(F)cc1
    1.1	4.7
COc1cccc2sc(NC(=O)c3ccc(S(=O)(=O)N4CCCCC4)cc3)nc12
    1.1	2.1
Cc1cc(C)c(NC(=O)CC2Oc3ccc(C)cc3NC2=O)c(C)c1 (stereo not drawn)
    1.1	2.2
O=C(Nc1ccc(Oc2ccccc2)cc1)c1ccc(NC2=NC3CS(=O)(=O)CC3S2)cc1 (stereo not drawn)
    1	0.35
CCc1ccc(NS(=O)(=O)c2c(C)noc2C)cc1
    1	0.099
CCOC(=O)N1CCN(c2c(NCCN3CCCCC3C)c(=O)c2=O)CC1 (stereo not drawn)
    1.1	1.1
CC(C)Oc1ccc(C2CNC(=O)C2)cc1 (stereo not drawn)
    1	1.2
CCn1nccc1C(=O)Nc1nc2ccccc2n1CCN1CCCCC1
    0.88	-3.8
CCN1C(=O)c2ccccc2S(=O)c2ccc(C(=O)NCc3ccc(OC)cc3)cc21 (stereo not drawn)
    0.96	-0.96
COc1ccc(Nc2nc(-c3ccc(C)cc3)nc3ccccc23)c(OC)c1
    1.6	27
CSc1cccc(Nc2cc(C(=O)NC(C)c3ccccc3)c3ccccc3n2)c1 (stereo not drawn)
    1.3	8.8
Cc1ccc2nc(NC(=O)CC3Oc4ccccc4NC3=O)sc2c1 (stereo not drawn)
    1.1	0.74
O=C(NCc1ccc(Cl)cc1)C1(NS(=O)(=O)c2cccc3cccnc23)CCCCC1
    0.9	-0.83
COc1cccc(CNC(=O)C2CCN(S(=O)(=O)c3cnc[nH]3)CC2)c1
    1	0.049
COc1ccc2nc(NC(=O)c3cc4ccccc4cc3OC)sc2c1
    1	0.47
Cc1cc(C)cc(NC(=O)CC23CC4CC(C2)CC(n2nnc(C)n2)(C4)C3)c1
    1.1	0.96
CCC(C)[C@@H](C(=O)Nc1ccc2c(c1)OCCO2)N1Cc2ccccc2C1=O (stereo partly drawn)
    0.95	-0.84
O=C(CSc1nnc(C2COc3ccccc3O2)o1)Nc1nc(-c2ccccc2)cs1 (stereo not drawn)
    1.2	4.8
Cc1ccn2c(-c3csc(Nc4cccc(O)c4)n3)c(C)nc2c1
    0.96	-0.51

Source: PubChem

The list is partial; count on the stated rates, not on these rows.
